Assay outcomes deposited in PubChem by National Center for Advancing Translational Sciences (NCATS).
AmpC inh no det – blocks E. coli AmpC beta-lactamase in absence of detergent; AmpC nitrocefin hydrolysis, absorbance 480 nm, no detergent; potencies from a single point are estimates; Potency, µM (doses to about 28.7 µM), for the others: at the highest dose activity change, negative = inhibition; actives 1.8% (n = 71,000); AID 585; active = falling curve, for most hits resting on a single point; inconclusive = weak or doubtful change; inactive = flat or rising curve; further: % of control where 0% means no effect; about half of the hits show no inhibition at the top dose; a quarter of the inactives give rising signals
Target sequence (P00811 whole entry, looked up): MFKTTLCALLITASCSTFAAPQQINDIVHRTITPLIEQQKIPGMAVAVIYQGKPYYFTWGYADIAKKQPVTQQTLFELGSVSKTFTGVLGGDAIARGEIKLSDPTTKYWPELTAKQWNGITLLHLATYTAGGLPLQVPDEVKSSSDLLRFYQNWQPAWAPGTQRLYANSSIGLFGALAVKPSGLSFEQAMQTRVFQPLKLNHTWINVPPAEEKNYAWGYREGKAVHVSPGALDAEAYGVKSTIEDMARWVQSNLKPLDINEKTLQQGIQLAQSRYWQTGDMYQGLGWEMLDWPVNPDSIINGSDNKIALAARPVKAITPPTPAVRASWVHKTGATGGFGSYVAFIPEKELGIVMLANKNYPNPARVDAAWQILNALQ
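AmpC, 20 mM phosphate pH 7.0; 15 min cpd preinc, RT; start with nitrocefin (800 uM stock); A480 kinetic read, 20 s intervals, 4 min. No-enzyme wells = negative control.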
An asterisk follows results filed as active; ? = inconclusive; & = joins results of further samples; [ ] = remark or other dose. Potency means the concentration at half of the fitted maximal effect.

Molecule	AmpC inh no det
CC(C)OC(=O)CSc1nnc(-c2ccc(Cl)cc2)n1N	10.3%
COC(=O)CC1SC(=O)NC1=Nc1ccc(C)cc1 (stereo not drawn)	-8.5%
Cc1cccc(NC(=O)CSc2nnc([C@@H](N)Cc3c[nH]c4ccccc34)o2)c1C	87.1%
CC(=O)c1ccc(N2CCN(C(=O)c3ccc(NC(=O)C4CCCO4)cc3)CC2)cc1 (stereo not drawn)	60.6%
COc1ccccc1NC(=O)c1cc2ccccc2o/c1=N\O	0.9%
CCCCCn1c(=O)[nH]c2cc(C(=O)NCCN3CCOCC3)ccc2c1=O	24.4%
COc1cccc(NC(=O)N2CCC(C(N)=O)(N3CCCCC3)CC2)c1	-8.4%
COc1cc(NC(=O)c2ccco2)c(OC)cc1NC(=O)CSc1nnc(-c2cccs2)n1C	167.5%
COCc1nc(-c2cc(Br)ccc2OC)no1	16.1%
CCOc1ccccc1OCCCC(=O)Nc1ccc(OC)nc1	82.3%

Molecule	AmpC inh no det
COc1ccc(C(c2ccc(OC)cc2)C(Cl)(Cl)Cl)cc1	-10.0%&-12.8%
Cc1cccc(N2CCN(c3nc4ccc(Cl)cc4n4cnnc34)CC2)c1C	-7.8%
Nc1cc(=O)nc(SCC(=O)NC2CCCCC2)n1-c1ccccc1	4.2%
COc1ccc(NS(=O)(=O)c2ccc(Br)s2)cc1OC	-14.5%
CCSCCCC(=O)O	-3.7%[5.75 µM]
COc1ccc(C2CC(C(F)(F)F)n3nc(C(=O)NCCCn4ccnc4)cc3N2)cc1OC (stereo not drawn)	66.0%
Cc1ccc(S(=O)(=O)Nc2ccccc2C(N)=O)cc1	-18.1%
CCC(C)C(NC(=O)OC(C)(C)C)C(=O)NC(CC(C)C)C(N)=O (stereo not drawn)	7.2%
O=C(Nc1ccccc1)N1CCN2C(=O)c3ccccc3C12c1ccccc1 (stereo not drawn)	64.7%
Cc1cccc(N(CC(=O)NC2CCCCC2)C(=O)c2c(C)noc2C)c1	37.8%

A different layout for some results above.
Cc1ccc(S(=O)(=O)Nc2ccccc2C(N)=O)cc1
  AmpC inh no det = -18.1%
CCC(C)C(NC(=O)OC(C)(C)C)C(=O)NC(CC(C)C)C(N)=O (stereo not drawn)
  AmpC inh no det = 7.2%
O=C(Nc1ccccc1)N1CCN2C(=O)c3ccccc3C12c1ccccc1 (stereo not drawn)
  AmpC inh no det = 64.7%

Following part.
Molecule	AmpC inh no det
O=C(c1ccccc1OCc1ccccc1Br)N1CCN(c2ncccn2)CC1	92.1%
COC(=O)C1C2C=CC3(CN(c4cccc(Cl)c4)C(=O)C13)O2 (stereo not drawn)	-3.1%
CC1CCC(NC(=O)Cn2cc3c(n2)CCCC3)CC1 (stereo not drawn)	1.4%
O=C(COC(=O)c1cncc(Br)c1)NCc1ccco1	0.2%
CC(C(N)=O)N1CC(c2ccc(Cl)cc2)CC1=O (stereo not drawn)	16.7%
O=C(c1ccc(F)cc1)N1CCN(c2ncccn2)CC1	9.3%
Nc1nnc(-c2cccc(Cl)c2Cl)c(N)n1	-4.2%&-17.4%
COC(=O)c1ccccc1NC(=O)CN(Cc1ccccc1)S(C)(=O)=O	36.7%
CCOC(=O)c1cnc(SCc2ccc(C)cc2)nc1N	-6.5%
CC(=O)O[C@H]1CC[C@@]2(C)[C@@H](CC[C@H]3[C@H]2CC(=O)[C@]2(C)[C@@H]3C[C@@H](N3CC3)[C@H]2C(C)=O)C1	62.7%[5.75 µM]

4 of the compounds above, with each value named.
COC(=O)C1C2C=CC3(CN(c4cccc(Cl)c4)C(=O)C13)O2 (stereo not drawn)
- AmpC inh no det = -3.1%

CC1CCC(NC(=O)Cn2cc3c(n2)CCCC3)CC1 (stereo not drawn)
- AmpC inh no det = 1.4%

O=C(COC(=O)c1cncc(Br)c1)NCc1ccco1
- AmpC inh no det = 0.2%

CC(C(N)=O)N1CC(c2ccc(Cl)cc2)CC1=O (stereo not drawn)
- AmpC inh no det = 16.7%

Later entries:
Molecule	AmpC inh no det
CN1CCn2c1nc(N1CCCCC1)nc2=O	-2.1%
COc1cc(-c2noc(-c3cccc(Cl)c3)n2)cc(OC)c1OC	50.3%
CCCn1c(C)nc2c(NCC(C)(C)CN(C)C)nc(C)nc21	0.2%
COC(=O)[C@H](C)[C@H]1C[C@]1(C)[C@H](NC(=O)OCc1ccccc1)c1ccccc1	6.4%
O=C(c1cccs1)N(Cc1ccccn1)Cc1ccco1	15.7%
Cc1nn(-c2ccc(S(=O)(=O)O)cc2)c(O)c1N=Nc1ccc(-c2ccc(N=Nc3ccc4c(S(=O)(=O)O)cc(S(=O)(=O)O)c(N)c4c3O)c(O)c2)cc1O.[Cu].[Cu]	-14.2%[5.75 µM]
CCOC(=O)c1cc(C)sc1NC(=O)C1CCC1	21.5%
O[C@@H](COc1ccc(Cl)cc1Cl)CN1CCCC1	-7.3%[5.75 µM]
CS(=O)(=O)Nc1ccc(Cc2noc(-c3ccc4[nH]cc(CCN)c4c3)n2)cc1	-19.2%
O=C(CCS(=O)(=O)c1ccc(Br)cc1)N1CCN(c2ccccc2)CC1	68.9%

Molecule	AmpC inh no det
CC(C)(C)c1nnc2sc(SC/C(O)=C(\C#N)c3nc4ccccc4[nH]3)nn2c1=O	-4.2%
COc1cc(S(=O)(=O)Nc2ccccc2C)ccc1Cl	0.7%
Cc1ccc2cc3c(NC(=O)c4ccco4)nn(C)c3nc2c1	114.3%
CS(=O)(=O)N(Cc1nnc(-c2cccs2)o1)c1ccc(Cl)cc1F	10.5%
Nc1ccccc1N=Cc1c(O)n(CCC2=CCCCC2)c(=O)[nH]c1=O	0.1%
C=CCOC(=O)C(C#N)c1nc2ccccc2nc1N1CCN(Cc2ccc3c(c2)OCO3)CC1 (stereo not drawn)	14.2%
Cc1nc(NCc2ccccc2)c2nc(-c3ccccc3)n(CCN3CCCC3)c2n1	77.3%
CCCOC(=O)CN1C(=O)c2ccc(C(=O)OCCC)cc2C1=O	24.2%
O=C(Nc1ccccc1C(=O)NCCN1CCOCC1)c1ccco1	-11.0%
COc1ccc(N(CC(=O)N2c3ccccc3CC2C)S(=O)(=O)c2c(C)noc2C)cc1 (stereo not drawn)	?

SMILES | AmpC inh no det
COc1ccc(Cc2nnc(SCc3nc4ccccc4c(=O)[nH]3)o2)cc1 | -4.4%
COc1ccccc1NC(=O)CSc1ccc2nnc(-c3ccncc3)n2n1 | 15.2%
CCOC(=O)CNc1c(N2CCN(c3ccccn3)CC2)c(=O)c1=O | 3.98µM*[single pt active]
Cc1c(N=Cc2nc3ccccc3[nH]2)c(=O)n(-c2ccccc2)n1C | -7.0%
CC(=O)Nc1ccc(C(=O)Nc2ccc3c(c2)OCO3)cc1 | 0.3%
COc1ccc(-n2c(=O)c(-c3ccc(Cl)cc3)nc3cnc(N4CCOCC4)nc32)cc1 | 6.7%
NC(N)=NC(N)=Nc1ccc(S(N)(=O)=O)cc1 | -3.5%[5.75 µM]
Cc1oc2c(c1C(=O)NC(Cc1c[nH]c3ccccc13)C(=O)O)CCCC2 (stereo not drawn) | 8.7%
CCc1nnc(NC(=O)Nc2ccc(OC)cc2)s1 | -12.3%
Cc1onc(-c2c(F)cccc2Cl)c1C(=O)OCN1C(=O)c2ccccc2C1=O | 12.9%
NC(=O)c1cccc2c1C(=O)N(C1CCCCC1)C2 | 3.98µM*[single pt active]
Cc1cccc(-c2c3c(=O)n(C)c(=O)n(C)c3cn2C(C)(C)C)c1 | 55.2%
COc1cc(C(=O)Nc2ccccc2N2CCN(S(C)(=O)=O)CC2)cc(OC)c1OC | 72.1%
O=C(NC1c2ccccc2-c2ccccc21)N1CCOCC1 | 19.4%
O=c1cnc2cnc(N3CCOCC3)nc2n1C1CC1 | -3.3%
CC(Oc1ccc(Cl)cc1Cl)C(=O)NCCCN(C)C (stereo not drawn) | 4.6%
O=c1[nH]c(CN2CCc3ccccc3C2)nc2ccccc12 | -0.6%
O=C(Nc1cccc(-c2nnc(-c3ccccc3)o2)c1)C1CCCCC1 | 2.6%
COc1ccc(F)cc1S(=O)(=O)NC(Cc1ccccc1)C(N)=O (stereo not drawn) | -1.9%
CC[C@H](CO)NC(=O)[C@H]1C=C2c3cccc4[nH]cc(c34)C[C@@H]2N(C)C1 | -15.2%[12.8 µM]
Cc1cccc(CNc2ccnc(-c3cccc(NS(C)(=O)=O)c3)n2)c1 | 49.9%
COc1ccc(S(=O)(=O)NCCSCc2ccco2)cc1Cl | -19.7%
O=C(COc1ccccc1)N1CCN(C(=O)c2cccs2)CC1 | -9.5%
CCn1c(SCC(N)=O)nc2ccccc2c1=O | -2.5%
COC(=O)c1sccc1NC(=O)c1ccc(OC)cc1 | 21.0%

SMILES | AmpC inh no det
CCOc1cc(C(=O)NC(C)c2ccncc2)cc(OCC)c1OCC (stereo not drawn) | 46.7%
CCOCCCNC(=O)Cn1cc2c(n1)CCCCC2 | 9.8%
COc1ccccc1-c1cc(NCc2ccccc2)ncn1 | 18.2%
CCOP(=O)(C#CC(C)(C)C)C(O)(c1ccccc1)C(F)(F)F (stereo not drawn) | 66.7%
O=C(c1cc(-c2ccco2)on1)N1CCOCC1 | 48.9%
COc1ccc2nc(N3CCC(C)CC3)c(C#N)cc2c1 | 32.0%
Oc1ccc(-c2[nH]ncc2-c2cccc3cccnc23)c(O)c1 | -8.9%
CCOc1ccc(N2CC(=O)N/C2=N\c2nc(C)cc(C)n2)cc1 | -3.0%
CC(C)Cn1c2c(c(O)c(C(=O)Nc3ncccc3O)c1=O)CCCC2 | 4.3%
O=C(Nc1ccc2c(c1)OCO2)c1ccc(COc2ccc3c(c2)CCC3)o1 | -19.6%
CCOC(=O)c1c(C)c(C)n2c1NC(=O)C2 | 4.2%[5.75 µM]
COc1ccc(-c2ccc(-c3noc(-c4cccc(OC)c4)n3)c(OC)n2)cc1 | 20.4%
CCOc1ccc(Cn2nnc(C(=O)NCc3ccccc3)c2N)cc1 | 3.16µM*[single pt active]
NC(=O)NC(=O)CSc1cccc(C(F)(F)F)c1 | -3.0%
CCCCC(=O)Nc1ccc(NC(=O)c2ccc3c(c2)OCO3)cc1OC | 2.9%
C=C(C)CSC1=C(C#N)C(c2ccccc2Cl)CC(=O)N1 (stereo not drawn) | -14.1%
Cc1cc(C)n(-c2ccc(C(=O)OCc3nnc(-c4ccccc4)o3)cc2)n1 | 66.3%
O=C(OCc1csc(-c2ccccc2)n1)c1cccs1 | -2.2%
COC(=O)c1cc2ccc(OC)c(OC)c2c(=O)s1 | -8.5%
COc1cccc(N(C(C)=O)c2nc(C)cc(C)c2C#N)c1 | 33.8%
Cc1nnc(-n2cnc3ccccc32)c2ccccc12 | 2.5%
CSc1nc(SCC(=O)NCc2ccco2)c2c3c(sc2n1)COC(C)(C)C3 | 4.1%
c1csc(-n2nc3ccccc3n2)c1 | 5.0%
Cn1c(=O)oc2cc(S(=O)(=O)NCCC(=O)NCCc3ccccc3)ccc21 | -2.5%
COc1ccc(N2CCN(C(=O)c3c(-c4ccccc4)noc3C)CC2)cc1 | 102.6%

Reprinted at random: two compounds from above.
SMILES | AmpC inh no det
COc1ccccc1-c1cc(NCc2ccccc2)ncn1 | 18.2%
CCOc1cc(C(=O)NC(C)c2ccncc2)cc(OCC)c1OCC (stereo not drawn) | 46.7%

Remaining list, next part:
SMILES | AmpC inh no det
CCc1ccc(OCC(O)CN2CCN(c3ccccc3)CC2)cc1 (stereo not drawn) | 64.4%
C/C=C(\C)c1nnc(NC(=O)OCC)s1 | 4.1%
CC(C)(C)C(=O)Nc1ncc(C(F)(F)F)cc1Cl | 5.6%
COC(=O)CN1C(=O)C(C)(C)Oc2ccc(C(=O)NC3CC3)cc21 | 1.0%
O=C(CSc1nnc(C2CCCCC2)n1Cc1ccccc1)NCc1ccco1 | 73.2%
COc1cc(C(=O)Nc2nncs2)cc(OC)c1OC | -5.3%
CCc1ccc(CCC(=O)Nc2ccc(C)c(C)c2)o1 | -10.9%
COC(=O)c1ccc(-n2nnnc2SCC(=O)N2CCCCC2)cc1 | 10.0%
CC1CN(CC(O)COc2ccc(C(C)C)cc2)CC(C)O1 (stereo not drawn) | 46.7%
O=C(Nc1ccccc1)C1=C(O)CC(c2ccoc2)CC1=Nc1ccccc1 (stereo not drawn) | -13.5%
Cc1nc(N2CCN(C(c3ccccc3)c3ccccc3)CC2)[nH]c(=O)c1C | 30.4%
Cc1cc(Br)ccc1NC(=O)CNC(=O)CSc1n[nH]c(N)n1 | -3.3%
COc1ccc(NC(=O)N2CCC(NC(=O)c3ccco3)CC2)cc1 | -18.7%
O=C(O)[C@@H]1[C@@H](C(=O)Nc2ccccc2)[C@@H]2C=C[C@@H]1O2 | 3.8%[5.75 µM]
COC(=O)c1ccccc1NC(=O)CSc1nnc(Cc2ccc(Cl)cc2)o1 | 37.3%
Cc1ccc(-n2cc3c(=O)n(C)c(=O)n(C)c3c2)cc1C | 48.0%
CCC(=O)N1CCc2cc(Br)cc(S(=O)(=O)C3(C(=O)OC)CC3)c21 | 51.7%
CCCN(c1ccc(OCC)cc1)S(=O)(=O)c1ccc2c(c1)CCN2C(=O)CCC(=O)O | 27.9%
CCOC(=O)c1[nH]c2ccccc2c1NC(=O)C1CCCCC1 | 7.2%
O=C(NCC1CCCO1)C1CCN(C(=O)c2ccc(Cl)cc2)CC1 (stereo not drawn) | 19.2%
CNC(=O)C1C2C=CC3(O2)C1C(=O)N(CCOC)C3C(=O)NCc1ccc(OC)cc1 (stereo not drawn) | 0.8%
CCOc1ccc2nc(NCCO)[nH]c2c1 | -11.5%
CC(=O)N(CC1CCCO1)c1nnc(-c2ccccn2)s1 (stereo not drawn) | -3.0%
COc1cc(C(=O)N2CCN(c3ncnc4sc(C)c(C)c34)CC2)cc(OC)c1OC | 106.5%

These rows are one share of the data; the hit share may differ from the screen's.
